Source: PubChem (National Center for Advancing Translational Sciences (NCATS))
GLA inh pH 4.5 = inhibitors of human alpha-galactosidase A at pH 4.5; P06280; 230,000 tested, under 10 active; purified enzyme, 4-MU-alpha-Gal fluorescence, pH 4.5; activity change, negative = inhibition, % at 105 µM; inconclusive = small, poorly fitted or top-dose-only inhibition, or a rising curve; inactive = flat fitted curve, though single readings scatter; no compound was filed as active;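 further: 0% = full activity with enzyme and -100% = basal without enzyme; dose as in the result columns while the protocol names 77 µM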
Target sequence (P06280 whole entry, looked up): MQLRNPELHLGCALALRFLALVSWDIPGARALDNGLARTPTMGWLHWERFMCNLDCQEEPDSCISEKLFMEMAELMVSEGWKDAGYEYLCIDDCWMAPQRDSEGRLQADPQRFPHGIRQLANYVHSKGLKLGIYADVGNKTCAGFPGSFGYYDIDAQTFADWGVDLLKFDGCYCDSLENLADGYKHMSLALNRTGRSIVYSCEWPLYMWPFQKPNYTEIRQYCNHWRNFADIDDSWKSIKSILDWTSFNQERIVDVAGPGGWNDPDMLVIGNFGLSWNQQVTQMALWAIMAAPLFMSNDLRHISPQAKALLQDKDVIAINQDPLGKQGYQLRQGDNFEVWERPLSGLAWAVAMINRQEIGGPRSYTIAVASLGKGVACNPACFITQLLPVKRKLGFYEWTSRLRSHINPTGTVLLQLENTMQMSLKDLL
miR-21 reporter = miR-21 reporter, rising signal; Potency, µM (doses to about 38.3 µM), without a hit: at the top dose reporter change, positive = more light; HeLa miR-21 FLuc reporter, luciferase, 48 h; 340,000 tested, under 10 active; active = well fitted rising curve with a large enough effect; inconclusive = small, poorly fitted or top-dose-only effect; inactive = no such curve, though single readings can be large or run the other way;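 further: % of control where 0% means no effect; miR-21 action dims this reporter so a rising signal means less miR-21 action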
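HeLa miR-21-FLuc reporter line, endogenous miR-21; 2000 cells/well in DMEM/10% FBS; compound titration up to ~40uM final, 48 h, 37 degree Celsius; luciferase detection reagent, 15 min lysis, CCD luminescence.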
Rango dissoc inh = prevents RanGTP from dissociating the Rango-importin beta complex; O95149+P62826; Biochemical FRET Rango-importin beta, RanGTP-induced dissociation; Potency, µM (titrated, usually from 46.1 µM), for inactives: top-dose activity change, negative = inhibition; actives 0.071% (n = 340,000); AID 540253; active means falling FRET ratio curve, often poorly fitted, with flat reads before Ran was added; inconclusive means other falling curves, or compound fluorescence or quenching; inactive means flat or rising ratio curve;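 further: potency means the concentration at half of the fitted maximal effect; % of control where 0% means no effect; nearly all actives have a fitted effect of over 45% in size; -100% = wells without RanGTP and RCC1; the record marks most hits as doubtful in a second field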
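Compounds preincubate 5 min with complex of recombinant Rango and importin beta in PBS with 1 mM DTT. Ran (0.6 uM) loaded with 2 mM GTP plus 0.2 uM RCC1 starts dissociation; FRET is recorded 45 min later.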
Rango complex inh = prevents formation of the Rango-importin beta complex; Q14974; Rango CFP/YFP FRET sensor + importin beta, 45 min; Potency, µM (titrated, usually from 92.2 µM), inactives show top-dose inhibition of complex formation; actives 0.031% (n = 340,000); active = rising FRET ratio curve, often small or poorly fitted; inconclusive = mostly compound fluorescence or quenching in the first reads; inactive = flat curves in all reads;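 further: potency means the concentration at half of the fitted maximal effect; 0% = DMSO wells and 100% = buffer wells lacking importin beta; nearly all actives have a fitted effect of over 15% in size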
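Inhibition scored from the CFP 486 nm/YFP 530 nm FRET ratio 45 min after adding 0.125 microM importin beta to 50 nM Rango biosensor preincubated 5 min with compound (room temperature, PBS with DTT, Tween-20, BSA). No-importin wells as positive control.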
An asterisk follows results filed as active; ? = inconclusive; . = no result given; & = joins results of further samples. These rows are one share of the data (hit frequency here may not be typical).

SMILES	GLA inh pH 4.5	miR-21 reporter	Rango dissoc inh	Rango complex inh
CC(C)C(NC(=O)c1ccc(F)cc1)C(=O)NC1(C)CCS(=O)(=O)C1 (configuration not stated)	.	.	27.2%	7.0%
CCCCNC(=O)c1sc(=S)n2c1[nH]c(=O)c1ccc(C(=O)NCCc3ccc(OC)c(OC)c3)cc12	.	-1.8%	-0.8%	2.1%
CCC(=O)c1ccc(Oc2ccc(C(=O)c3ccc(C)cc3)cc2[N+](=O)[O-])cc1	-7.3	-0.5%	5.8%	-3.7%
C[n+]1c(-c2ccccc2)cc2c(=Cc3ccc([N+](=O)[O-])cc3)c3ccccc3n21	.	.	?	?
Cc1cccc(/C=C/c2onc(C)c2[N+](=O)[O-])n1	.	.	22.2%	-3.5%
COc1ccccc1-c1cc(C(=O)NCCCn2ccnc2)no1	-1.7	-14.5%	0.1%	5.0%
CSCc1ccc(C(=O)Nc2cc(C)cc(C)c2)cc1	-0.9	-45.4%	10.5%	4.9%
CCOC(=O)c1c(-c2ccccc2)oc2ccc(OC(C)C(=O)O)cc12 (configuration not stated)	-1.0	8.2%	-10.2%	0.0%
CCOc1ccccc1NC(=O)C1CCN(C(=O)NCc2ccccc2)CC1	-6.5	-5.4%	1.3%	1.1%
COc1ccc(N2CCN(c3ncnc4c3[nH]c3ccccc34)CC2)cc1	-9.8	17.0%	7.9%	-2.8%
CC(C)Cn1cnc2sc3c(c2c1=N)CCCC3	4.5	-11.9%	5.6%	-3.1%
CCN(C(=O)COC(=O)CCCN1C(=O)c2cccc3cccc(c23)C1=O)C1CCS(=O)(=O)C1 (configuration not stated)	.	.	-11.8%	2.9%
Cc1cc(CNC(=O)C2CCC(=O)N(Cc3ccccc3F)C2)on1 (configuration not stated)	.	0.5%	18.2%	2.3%
COc1ccc(S(=O)(=O)N2CCN(C(=O)C3CCC3)CC2)cc1	.	.	5.1%	-3.0%
O=C(Cc1c(F)cccc1Cl)NC1=NCCS1	9.2	-13.0%	6.8%	-0.6%
COC(=O)c1ccc(CNC(=O)c2ccc3oc(C(C)C)nc3c2)cc1	.	-51.6%	-16.7%	-1.7%
Cc1nn(CC(=O)NNC(=S)NCC2CCCO2)c(C)c1Br (configuration not stated)	.	-0.5%	0.5%	-0.7%
O=C(Nc1ccccc1)Nc1nc(-c2ccccc2)cs1	1.1	-23.4%	-8.6%	-0.5%
C=CCn1c(C)cc(C(=O)CSc2nc(N)cc(N)n2)c1C	-10.5	-18.7%	-4.1%	0.9%
O=C(NCCCCCCNC(=O)c1cncc(O)c1)c1cncc(O)c1	2.3	0.3%	-9.7%	-3.5%
C=CCOc1nc2c(c(=O)n(C)c(=O)n2C)n1Cc1c(Cl)cccc1Cl	-3.1	-2.7%	7.1%	3.2%
COc1cc(Cl)c(C)cc1NC(=O)COc1ccc(C)nc1[N+](=O)[O-]	.	.	14.8%	3.4%
COc1ccc(OC)c(C(=O)NC(CC(N)=O)c2ccc(N3CCN(c4ccccc4)CC3)c([N+](=O)[O-])c2)c1 (configuration not stated)	.	-0.3%	3.8%	1.4%
O=C(c1cccc(S(=O)(=O)NCc2ccccc2)c1)N1CCN(c2cccc(C(F)(F)F)c2)CC1	.	26.4%	-13.7%	-1.8%
CCCOc1ccc2ccccc2c1/C=N/n1c(C)nnc1-n1nc(C)cc1C	-0.3	9.2%	-4.7%	3.4%
CO/N=C(\Cn1ncc(N2CCCC2)c(Cl)c1=O)c1ccc(Cl)cc1	3.1	-13.7%	-3.9%	-1.8%
COc1cc(Cl)cc(/C=N/NC(N)=O)c1O	0.9	-2.6%	?	?
O=C(Cn1c(=O)sc2ccccc21)Nc1ccccc1	1.0	-11.6%	-13.8%	1.1%
CN1CCOCCOCCN(C)C1=O	-0.7	-2.8%	-7.8%	2.3%
Cc1ccc(C)c(-c2csc(-c3cccnc3)n2)c1	.	-12.9%	-15.7%	0.7%
O=C(Cc1cccc(C(F)(F)F)c1)Nc1cccc(S(=O)(=O)N2CCCC2)c1	.	4.7%	15.0%	5.0%
CCOc1cc(C(N)=O)cc(Br)c1OCC	0.1	15.9%	-4.9%	-2.6%
O=C(NC(Cc1ccccc1)c1ccc2c(c1)OCCCO2)c1ccccc1F (configuration not stated)	-0.6	-8.6%	-3.6%	0.7%
Cc1ccc(NCCC(=O)c2ccc(Br)cc2)cc1	-1.9	-1.2%	-3.8%	-2.1%
Cc1cccc(NS(=O)(=O)c2ccc(C)c(C(=O)NCC(c3ccco3)N3CCCCC3)c2)c1 (configuration not stated)	.	.	18.0%	-3.4%
CCn1cc(C(=O)NCCCOC(C)C)c(=O)c2cc(S(=O)(=O)N3CCOCC3)ccc21	.	-7.2%&-6.1%	-14.0%	0.4%
Cc1cc(C)cc(S(=O)(=O)c2cnc3ccccc3n2)c1	-2.9	10.6%	-6.8%	-0.2%
C=CCn1c(SCc2nc(N)nc(N(C)C)n2)nnc1-c1cccnc1	-3.6	0.5%	-17.1%	0.3%
CCOc1ccc(S(=O)(=O)N(CC)CC(=O)NC2CC2)cc1	.	1.9%	2.5%	0.4%
COCc1[nH]nc2c1C(c1ccc(OC)cc1)C(C#N)=C(N)O2 (configuration not stated)	5.1	-4.0%	3.9%	4.2%
O=C(NCCCn1ccnc1)c1cc(C(=O)C2CC2)c[nH]1	3.3	-1.6%	-3.9%	-1.5%
O=C(Nc1ccc(Oc2ccc(C(F)(F)F)cn2)c(Cl)c1)C1CC1	-6.1	7.5%	3.5%	5.8%
Cc1cccc(C)c1N(CC(=O)N1CCCC1)S(C)(=O)=O	.	-1.8%	16.2%	-1.1%
CCOC(=O)N/N=C/c1ccc(N2CCOCC2)s1	-8.5	-28.2%	-9.5%	3.2%
N=c1n(Cc2ccccc2)c2ccccc2n1CC(O)COc1ccc(Cl)cc1Cl (configuration not stated)	?	?	40.4%	6.1%
Cc1cc(C(=O)OCC(=O)N2CCCCCC2)ccc1[N+](=O)[O-]	.	.	0.1%	2.8%
CCOC(=O)N1CCC(N(CCN(C)C)C(=S)Nc2ccccc2OC)CC1	-2.5	-3.7%	-6.5%	0.6%
O=C(NCCc1ccc(F)cc1)c1ccc2nccnc2c1	.	.	-25.6%	-2.9%
Nc1nc(N2CCCCC2)nc(N(c2ccccc2)c2ccccc2)n1	5.4	-5.1%	6.0%	-4.0%
Cc1cc(=O)[nH]c(N2CCN(C(c3ccccc3)c3ccccc3)CC2)n1	-1.6	-1.0%	2.4%	0.3%

Next entries follow.
SMILES	GLA inh pH 4.5	miR-21 reporter	Rango dissoc inh	Rango complex inh
Cc1cc2nnc(SCCCCN3C(=O)c4ccccc4C3=O)n2c2ccccc12	-25.3	-4.3%	.	.
O=C(Nc1ccc(/C=C/c2nc3ccccc3o2)cc1)c1ccc(F)cc1	4.6	-22.6%	-15.4%	3.7%
CSCC[C@H](NC(=O)[C@@H]1Cc2ccccc2CN1)C(=O)NC(C)c1ccccc1 (some centres not stated)	.	-1.5%	-7.2%	-4.4%
COc1cccc(N(C(=O)c2cccs2)c2nc3ccccc3s2)c1	-10.7	-29.9%	5.1%	0.3%
O=C(Cn1c(=O)oc2ccc(Cl)cc21)NC1CCCCC1	.	1.8%	16.6%	-4.6%
O=C(CSc1nnc(-c2ccco2)o1)NC1CC2CCC1C2 (configuration not stated)	3.5	-8.4%	5.3%	5.0%
CSc1ccccc1NC(=O)c1cnc2n(c1=O)CCS2	-3.6	-22.3%	1.7%	1.0%
CCCCN1C(=O)C2NN=C(C(=O)OCC)C2C1=O (configuration not stated)	3.7	2.9%	-7.7%	2.8%
COc1ccc(-c2cnc(SCC(=O)Nc3nc(C(C)(C)C)cs3)n2Cc2ccco2)cc1	-1.5	11.8%	-10.3%	1.1%
Cc1csc(NC(=O)c2cc(-c3ccccc3)nc3ccccc23)n1	0.9	17.7%	-4.1%	2.0%
CC(C)[C@H](NC(N)=O)C(=O)NCCc1ccc(Cl)cc1	-7.8	-0.9%	2.5%	-2.6%
CCCCn1c(N)c(N(CC(C)C)C(=O)c2cccc(S(=O)(=O)N3CCN(C(C)=O)CC3)c2)c(=O)[nH]c1=O	.	.	-0.2%	?
O=C(NNC(=S)Nc1ccccc1)c1ccco1	7.0	-25.7%	26.8%	-6.4%
O=C(Nc1ccc2c(c1)OCCO2)C1CCC1	1.4	-23.5%	10.7%	4.7%
COc1ccccc1CNC(=O)C(=O)Nc1nccs1	3.0	-8.1%	4.8%	3.2%
COc1ccc(CCN(C)C(=O)c2cc(-c3ccccc3)nc3ccc(C)cc23)cc1OC	.	-27.9%	-12.6%	-3.3%
Cc1ccccc1OCC(=O)N/N=C1\SCC(=O)N1Cc1ccccc1	4.6	-4.9%	-6.9%	-0.1%
O=C(COC(=O)c1c(Cl)ccc(Cl)c1Cl)NCC1CCCO1 (configuration not stated)	.	.	0.7%	-0.8%
COc1ccc(OC)c2[nH]c(=O)c(CCNC(=O)C(=O)c3c(C)[nH]c4ccccc34)cc12	9.4	-6.0%	-6.6%	-3.2%
C#CCOCCOCCOCCNc1nc(N2CCN(C(=O)[C@H](CCC(=O)O)n3cc(C(N)CC(C)C)nn3)CC2)nc(N2CCN(C(=O)[C@H](CCC(=O)O)n3cc(C(N)[C@H](C)CC)nn3)CC2)n1 (some centres not stated)	1.3	4.1%	10.1%	0.1%
CCc1ccccc1OCC(=O)Nc1cc(S(=O)(=O)N2CCOCC2)ccc1N1CCCCC1	.	.	5.3%	-1.0%
CCN1CCN(c2cc(-c3ccccc3)nc3cc(-c4cccc(F)c4)nn23)CC1	-2.6	?	?	?
CC(C)COC(=O)OCN1C(=O)CN(CCN2CC(=O)N(COC(=O)OCC(C)C)C(=O)C2)CC1=O	-0.1	.	5.3%	0.0%
CCc1cccc2c(C#N)cn(CCOc3ccccc3OC)c12	?	-0.5%	-0.8%	-2.2%
CCN(CC)CC(=O)Nc1nc(-c2ccc(Cl)cc2)cs1	-17.4	-16.4%	1.6%	1.6%
COc1ccc(-c2nc3c(c(=O)[nH]c(=O)n3Cc3ccccc3)n2Cc2ccccc2)cc1	-10.3	0.3%	2.6%	-1.8%
CCC(C)NC(=S)N1CCN(Cc2ccc3c(c2)OCO3)CC1 (configuration not stated)	4.0	-8.1%	-14.4%	-0.4%
CC(Sc1ccccc1)C(=O)Nc1ccccc1C(=O)N1CCOCC1 (configuration not stated)	10.1	0.0%	-13.4%	-3.5%
COc1ccc(S(=O)(=O)N2CCCCCC2)cc1C(=O)N(C)CC(=O)Nc1ccccc1Cl	.	.	10.1%	-1.7%
CCOC(=O)N1CCC(NC(=O)C(NS(=O)(=O)c2ccc3c(c2)CCN3C(=O)CC)C(C)C)CC1 (configuration not stated)	1.4	-0.6%	-16.9%	0.8%

Among those listed so far, two have a cyano group:
SMILES	GLA inh pH 4.5	miR-21 reporter	Rango dissoc inh	Rango complex inh
COCc1[nH]nc2c1C(c1ccc(OC)cc1)C(C#N)=C(N)O2 (configuration not stated)	5.1	-4.0%	3.9%	4.2%
CCc1cccc2c(C#N)cn(CCOc3ccccc3OC)c12	?	-0.5%	-0.8%	-2.2%

New compounds follow.
SMILES	GLA inh pH 4.5	miR-21 reporter	Rango dissoc inh	Rango complex inh
O=C(O)CC1S/C(=N/N=C/C2CC=CCC2)NC1=O (configuration not stated)	3.7	-0.6%	-11.2%	-1.4%
CC/C(=C\C(=O)c1cccnc1)Nc1ccc(C)c(C)c1	12.1	-18.3%	5.2%	-1.5%
CC(C)(C)C1=Nn2c(nnc2-c2ccco2)SC1	3.7	-6.7%	-0.1%	0.7%
O=C1NC(=O)c2cc(NC(=O)C3COc4ccccc4O3)ccc21 (configuration not stated)	4.4	-2.2%	1.0%	-3.8%
C=CCSc1nnc(NC(=O)COc2ccc3ccccc3c2)s1	3.1	-2.3%	0.2%	1.0%
COc1ccc(NC(=O)/C(C#N)=C/C=C/c2ccco2)cc1	1.7	10.1%	?	-0.2%
O=C(O)c1ccc(CNCc2cc(Cl)ccc2O)cc1	.	.	18.1%	-0.3%
Cc1ccccc1CN1C(=O)[C@H]2Cc3c([nH]c4ccccc34)C(C)(C)N2C1=O	.	.	-3.8%	?
COc1ccc(N=Nc2[nH]c3ccc(C)cc3c2O)cc1	4.6	-35.6%	9.6%	-2.2%
